Source: PubChem BioAssay (National Center for Advancing Translational Sciences (NCATS))
A647 autofl: compound fluoresces in the A647 spectral region. Compound fluorescence, A647 channel (570/671 nm), Tris buffer. max dye-equivalent concentration, M. 59,000 tested, under 10 active. AID 592; active means above 1 µM dye equivalent; inconclusive means 0.1 to 1 µM; inactive means 0.1 µM or less;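 note: values scaled relative to a standard on each plate; highest value over a series up to 38 µM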
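Spectral profiling of library compounds in pH 8.0 Tris: 15 min room-temperature incubation, single ex/em pair (570/671 nm), response normalized to Alexa 647 equivalents.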
TSHR agonist: agonists of human thyroid stimulating hormone receptor; P16473; HEK293-CNG-TSHR cells (CNG channel as cAMP sensor), membrane potential dye, cAMP; Potency, µM (highest dose often 57.1 µM), without a hit: at the top dose activation, usual class: activators; actives 0.48% (n = 73,000); active = well fitted activation curve of enough size with the parental cells flat; inconclusive = any curve in the parental cells; inactive = parental cells flat and receptor cells flat or falling; note: potency is the fitted concentration of half-maximal effect; % of control where 0% means no effect; weak receptor curves with flat parental cells got no call and are not listed
Target sequence (P16473 whole entry, looked up): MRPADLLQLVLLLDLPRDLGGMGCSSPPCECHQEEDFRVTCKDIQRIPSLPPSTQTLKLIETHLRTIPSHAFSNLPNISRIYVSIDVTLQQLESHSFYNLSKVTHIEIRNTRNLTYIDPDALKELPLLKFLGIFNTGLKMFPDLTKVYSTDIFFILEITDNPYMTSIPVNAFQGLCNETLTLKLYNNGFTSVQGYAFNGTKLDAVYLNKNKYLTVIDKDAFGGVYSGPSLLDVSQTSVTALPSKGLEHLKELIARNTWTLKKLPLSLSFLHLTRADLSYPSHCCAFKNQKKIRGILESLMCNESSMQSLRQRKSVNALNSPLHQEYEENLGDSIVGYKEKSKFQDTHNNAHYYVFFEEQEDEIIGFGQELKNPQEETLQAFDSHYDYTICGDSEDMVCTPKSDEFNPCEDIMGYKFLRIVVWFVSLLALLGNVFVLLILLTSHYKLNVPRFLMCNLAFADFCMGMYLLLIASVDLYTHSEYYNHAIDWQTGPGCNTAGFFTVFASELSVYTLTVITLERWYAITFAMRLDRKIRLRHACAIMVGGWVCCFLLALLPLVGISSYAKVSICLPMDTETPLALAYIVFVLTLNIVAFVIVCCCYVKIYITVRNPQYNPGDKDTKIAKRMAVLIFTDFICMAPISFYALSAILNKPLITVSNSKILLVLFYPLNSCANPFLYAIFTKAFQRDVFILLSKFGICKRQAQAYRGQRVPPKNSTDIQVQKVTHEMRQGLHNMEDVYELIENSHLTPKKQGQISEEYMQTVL
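cAMP rise detected as CNG-channel membrane depolarization by fluorescent dye (emission 590 nm), 30 min after compound, following 60 min dye loading containing 100 uM RO 20-1724 at room temperature. Cells: TSHR/CNG HEK 293, with parental CNG HEK 293 as control.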
AID923: qHTS Assay for Allosteric/Competitive Inhibitors of Caspase-1: Spectroscopic Profiling in AFC Spectral Region; compound fluorescence, AFC spectral region (405/520 nm); almost no hit is shown here; Potency, µM (series often up to 57.5 µM), inactives show at the highest dose fluorescence increase, actives largely listed as activators; actives 1.1% (n = 75,000); active = well fitted activation curve with a large enough effect; inconclusive = small, poorly fitted or top-dose-only effect;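 note: potency is the fitted concentration of half-maximal effect; 0% is about no effect; scaled to a free AFC standard on each plate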
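Compound autofluorescence profiled at 405 nm ex/520 nm em during kinetic caspase 1 run (50 nM enzyme, 5 uM Ac-WEHD-AFC, HEPES pH 7.5, 10 mM DTT). Titration up to 57 uM; baseline from regression intercept, normalized to AFC standard curve.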
A488 autofl: compound autofluorescence in A488 spectral region; max dye equivalency, M; actives 0.1% (n = 59,000); compound autofluorescence, A488 spectral region, dye equivalency; hits give high values; active = above 10 nM dye equivalent; inconclusive = 1 to 10 nM; inactive = 1 nM or less; about half of its hits are not listed in these tables;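 note: highest value over a series up to 38 µM; compound alone in buffer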
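Readout is A488 dye-equivalent concentration, calibrated by a per-plate six-point Alexa 488 series. Compounds in 100 mM Tris buffer pH 8.0 were incubated 15 min at room temperature. Plates were imaged using 480 nm excitation/540 nm emission filters.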
Resorufin fluor: resorufin region autofluorescence. Compound fluorescence, resorufin region 547/598 nm, buffer; hits give high values. max dye-equivalent concentration, M. actives 0.04% (n = 59,000); active = above 10 nM dye equivalent; inconclusive = 1 to 10 nM; inactive = 1 nM or less; a few of its hits are not listed in these tables; note: highest value over a series up to 38 µM
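Read-out: intrinsic compound fluorescence at ex 547/em 598 nm after 15 min at RT in pH 8.0 Tris (100 mM). Values expressed as resorufin-equivalent concentration from per-plate standard series.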
An asterisk follows results filed as active; i = inactive; ? = inconclusive; nt = no result given; & = joins results of further samples; [ ] = remark or other dose. An excerpt; rates above refer to the full screens.

SMILES	A647 autofl	TSHR agonist	AID923	A488 autofl	Resorufin fluor
O=C(c1cccc(Cl)c1)N1CCN(Cc2ccncc2)CC1	2.9e-09	9%	0.2%	i	i
O=C(NCc1ccccc1)NS(=O)(=O)c1ccccc1Cl	nt	1%	1.3%	nt	nt
Nc1nc(Nc2ccccc2Br)nc(C(F)(F)F)n1	nt	?	3.6%	nt	nt
Clc1ccccc1-c1cncnc1NCc1cccs1	1e-09	?	3.0%	i	i
CCCCOC(=O)CSC1=C(C#N)C(c2ccccc2OCC)C(C#N)C(=O)N1 (stereo not drawn)	5.6e-09	2%[11.4 µM]	-1.0%	i	i
CCOc1ccc(NC(=O)Nc2cc(C)on2)cc1	1e-09	-14%	1.5%	i	i
CCc1cc(C(=O)Cc2nc3ccccc3[nH]2)c(O)cc1O	9.7e-09	?	-0.7%	i	i
O=C(O)CCCNS(=O)(=O)c1ccc(Br)s1	3.7e-08	4%	0.6%	i	i
Cn1cnc2c1c(=O)[nH]c(=O)n2C	2.4e-08&5.2e-09&3.7e-08	0%[25.6 µM]	-3.7%	i	i
COc1ccccc1-c1nc(-c2ccncc2)no1	2.1e-08	2%	-0.2%	i	i
COc1ccc(C)cc1S(=O)(=O)NC1CCCC1	1e-09	5%	0.5%	i	i
COCCNC(=O)CN1C(=O)CSc2cc(S(=O)(=O)N3CCCCCC3)ccc21	nt	19%	4.1%	nt	nt
COc1cc(C(=O)Nc2cccc(-c3nc4cc(C)cc(C)c4o3)c2)cc(OC)c1OC	nt	-4%	-4.9%	nt	nt
CC(C)(C)C(=O)NC1CCN(S(=O)(=O)c2cccc(C(F)(F)F)c2)CC1	2.1e-08	3%	-1.0%	i	i
CCOCc1nnc(NC(=O)CSCc2ccccc2)s1	4.5e-09	-2%	0.1%	i	i
CCOC(=O)N/N=C1/C[C@@H](O)[C@@H](O)[C@@H]2[C@@H]3C(=O)N(c4cccc(Oc5ccccc5)c4)C(=O)[C@H]3CC[C@H]12	nt	-7%[11.4 µM]	-4.2%[11.5 µM]	nt	nt
COC(=O)c1c(NC(=O)CSc2nnnn2C)sc(C)c1C	1e-09	1%	-0.6%	i	i
Cc1cc(Nc2ccccc2)nn1C(=O)c1ccccc1	6.5e-09	-9%[11.4 µM]	-0.5%	i	i
COC(=O)C1CCN(C(=O)c2ccc(SC)cc2OC)CC1	1.7e-08	1%	-1.8%	i	i
C1CCC(CNc2c3c(nc4nnnn24)CCCC3)CC1	5e-08	0%	1.6%	i	i
O=C(O)c1ccc(COCC(F)(F)C(F)F)o1	3.8e-08	nt	nt	i	i
COc1ccccc1NC(=O)CN1CCC(n2nnc3cc(F)ccc32)CC1	1e-09	15%	0.4%	i	i
N=c1ccn(Cc2ccc(Cl)c(Cl)c2)cc1	5.7e-09	-1%	0.8%	i	i
CCNC(=O)N1C(=O)C2(OCCO2)c2cc(Br)ccc21	5e-09	-3%	-1.8%	i	i
Cc1ccc(S(=O)(=O)N(CCC#N)CCN2CCCC2)cc1	nt	-7%	-1.3%	nt	nt
O=C(NCC1CCCCC1)C1CCN(C(=O)NC2CCCCC2)CC1	1.2e-08	12%	-1.0%	i	i
O=S1(=O)CC(O)C(NCc2cccnc2)C1 (stereo not drawn)	2.7e-08	2%	-1.1%	i	i
Cn1cnnc1SCc1ccc(C(=O)n2ncc(C#N)c2N)cc1	1.2e-09	0%	-0.8%	i	i
CC1Oc2ccccc2N(CC(=O)N2CCc3ccccc32)C1=O (stereo not drawn)	1e-09	?	1.4%	i	i
O=C(CN1CCOCC1)Nc1c(-c2ccccc2)c2cc(Br)ccc2[nH]c1=O	nt	-5%	-1.0%	nt	nt

Compound profiles (already shown).
Record of `CCNC(=O)N1C(=O)C2(OCCO2)c2cc(Br)ccc21` = A647 autofl: 5e-09; TSHR agonist: -3%; AID923: -1.8%; A488 autofl: i; Resorufin fluor: i
Record of `N=c1ccn(Cc2ccc(Cl)c(Cl)c2)cc1` = A647 autofl: 5.7e-09; TSHR agonist: -1%; AID923: 0.8%; A488 autofl: i; Resorufin fluor: i

Further entries follow:
SMILES	A647 autofl	TSHR agonist	AID923	A488 autofl	Resorufin fluor
COc1ccc(C(=O)n2nc(C)cc2C)cc1Br	nt	3%	-0.5%	nt	nt
O=C(NCC(=O)N(c1ccccc1)C(C(=O)NC1CCCCC1)c1ccncc1)c1ccco1 (stereo not drawn)	1.8e-08	7%	0.4%	i	i
COC(=O)c1ccc2c(c1)SC1=C(CCCC1=O)N2	6.8e-08	-7%	-1.1%	?	1.9e-08M*
COc1ccc(NS(=O)(=O)c2ccc(SC)cc2)cc1	2e-08	10%	-1.5%	i	i
CNC(=O)C1(CC(C)C)C=CCN1C(C)=O (stereo not drawn)	nt	2%	1.5%	nt	nt
COc1ccc2c(c1)c1nnc(SCC(=O)N3CCCCC3C)nc1n2C (stereo not drawn)	1e-09	-1%	1.0%	i	i
COc1ccc(-n2nc3cc(C)c(NC(=O)CC(C)C)cc3n2)cc1	nt	-4%[11.4 µM]	-1.1%	nt	nt
CCN(CCCNC(=O)CCn1c(=O)[nH]c2ccccc2c1=O)c1cccc(C)c1	1e-09	-4%	0.7%	i	i
O=C(CCCOc1ccccc1)Nc1ccc2c(c1)OCCO2	nt	28%	1.5%	nt	nt
O=C(NCCN1CCCC1)c1ccc(Cn2c(=S)[nH]c3cc4c(cc3c2=O)OCO4)cc1	1e-09	?	0.8%	i	i
CCOCC(=O)Nc1nc2ccc(OC)cc2s1	1e-09	-3%	-1.5%	i	i
O=C(NCCN1CCN(c2ccccc2)CC1)c1cccc(Br)c1	8.3e-09	6%	-1.5%	i	i
COc1ccccc1CCNC(=O)c1ccc(C)o1	nt	-7%	0.9%	nt	nt
O=C(O)c1cc(S(=O)(=O)Nc2cccc(F)c2)ccc1Cl	nt	4%	-0.4%	nt	nt
O=C(CC1Oc2ccccc2NC1=O)NCc1ccccc1 (stereo not drawn)	nt	-5%	-1.0%	nt	nt
CC(=O)O[C@@H](C)C[N+](C)(C)C	3.7e-08&1e-09	?	2.0%[25.7 µM]	i	i
COC(=O)c1ccc(NC(=O)CN2CCN(c3ccccc3)CC2)cc1	9.9e-09	?	0.3%	i	i
Cc1oc(-c2cccc(Cl)c2)nc1CN1CCC(C(=O)NCC2CCCO2)CC1 (stereo not drawn)	4.4e-08	5%[11.4 µM]	0.3%	i	i
O=C(CSc1n[nH]c(C2CCCC2)n1)NC1CCCC1	1e-09	1%	0.5%	i	i

Structures from the list above that have four or more nitrogen atoms (twelve):
SMILES	A647 autofl	TSHR agonist	AID923	A488 autofl	Resorufin fluor
Nc1nc(Nc2ccccc2Br)nc(C(F)(F)F)n1	nt	?	3.6%	nt	nt
Cn1cnc2c1c(=O)[nH]c(=O)n2C	2.4e-08&5.2e-09&3.7e-08	0%[25.6 µM]	-3.7%	i	i
COC(=O)c1c(NC(=O)CSc2nnnn2C)sc(C)c1C	1e-09	1%	-0.6%	i	i
C1CCC(CNc2c3c(nc4nnnn24)CCCC3)CC1	5e-08	0%	1.6%	i	i
COc1ccccc1NC(=O)CN1CCC(n2nnc3cc(F)ccc32)CC1	1e-09	15%	0.4%	i	i
Cn1cnnc1SCc1ccc(C(=O)n2ncc(C#N)c2N)cc1	1.2e-09	0%	-0.8%	i	i
O=C(NCC(=O)N(c1ccccc1)C(C(=O)NC1CCCCC1)c1ccncc1)c1ccco1 (stereo not drawn)	1.8e-08	7%	0.4%	i	i
COc1ccc2c(c1)c1nnc(SCC(=O)N3CCCCC3C)nc1n2C (stereo not drawn)	1e-09	-1%	1.0%	i	i
COc1ccc(-n2nc3cc(C)c(NC(=O)CC(C)C)cc3n2)cc1	nt	-4%[11.4 µM]	-1.1%	nt	nt
CCN(CCCNC(=O)CCn1c(=O)[nH]c2ccccc2c1=O)c1cccc(C)c1	1e-09	-4%	0.7%	i	i
O=C(NCCN1CCCC1)c1ccc(Cn2c(=S)[nH]c3cc4c(cc3c2=O)OCO4)cc1	1e-09	?	0.8%	i	i
O=C(CSc1n[nH]c(C2CCCC2)n1)NC1CCCC1	1e-09	1%	0.5%	i	i
